# Mac1 fbg inh – blocks human CD11b/CD18 adhesion to fibrinogen. inhibition, % at 10 µM. 93,000 compounds, 0.54% hits. AID 1497. K562 CD11b/CD18 adhesion to fibrinogen, ATPlite luminescence; Mn2+ added to activate the integrin. P05107+P11215;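 active = primary inhibition of 50% or more at 10 µM, then 40% or more on retest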; note: some results filed as inactive read as strong as hits
# PLAP act – activates human placental alkaline phosphatase. P05187. purified PLAP enzyme, luminescent substrate read-out; hits give high values. activation fold at 20 µM. 96,000 compounds, 1.2% hits; in the data active = activation fold above about 2
# Pyk2 oligo antag – antagonists of human Pyk2 oligomerization; 99,000 compounds, 0.83% hits; Q293 cells, Pyk2 FERM NanoBiT luminescence; hits give low values; AID 1347419; z-score (the deposit names both 25 µM and 10 µM); Q14289;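 active = Z-score of -3 or lower, scaled per plate to the spread of control and sample wells; inactive = z-score above -3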;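 note: negative z-score means lost luminescence so less FERM oligomerization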
# Target sequence (Q14289 whole entry, looked up): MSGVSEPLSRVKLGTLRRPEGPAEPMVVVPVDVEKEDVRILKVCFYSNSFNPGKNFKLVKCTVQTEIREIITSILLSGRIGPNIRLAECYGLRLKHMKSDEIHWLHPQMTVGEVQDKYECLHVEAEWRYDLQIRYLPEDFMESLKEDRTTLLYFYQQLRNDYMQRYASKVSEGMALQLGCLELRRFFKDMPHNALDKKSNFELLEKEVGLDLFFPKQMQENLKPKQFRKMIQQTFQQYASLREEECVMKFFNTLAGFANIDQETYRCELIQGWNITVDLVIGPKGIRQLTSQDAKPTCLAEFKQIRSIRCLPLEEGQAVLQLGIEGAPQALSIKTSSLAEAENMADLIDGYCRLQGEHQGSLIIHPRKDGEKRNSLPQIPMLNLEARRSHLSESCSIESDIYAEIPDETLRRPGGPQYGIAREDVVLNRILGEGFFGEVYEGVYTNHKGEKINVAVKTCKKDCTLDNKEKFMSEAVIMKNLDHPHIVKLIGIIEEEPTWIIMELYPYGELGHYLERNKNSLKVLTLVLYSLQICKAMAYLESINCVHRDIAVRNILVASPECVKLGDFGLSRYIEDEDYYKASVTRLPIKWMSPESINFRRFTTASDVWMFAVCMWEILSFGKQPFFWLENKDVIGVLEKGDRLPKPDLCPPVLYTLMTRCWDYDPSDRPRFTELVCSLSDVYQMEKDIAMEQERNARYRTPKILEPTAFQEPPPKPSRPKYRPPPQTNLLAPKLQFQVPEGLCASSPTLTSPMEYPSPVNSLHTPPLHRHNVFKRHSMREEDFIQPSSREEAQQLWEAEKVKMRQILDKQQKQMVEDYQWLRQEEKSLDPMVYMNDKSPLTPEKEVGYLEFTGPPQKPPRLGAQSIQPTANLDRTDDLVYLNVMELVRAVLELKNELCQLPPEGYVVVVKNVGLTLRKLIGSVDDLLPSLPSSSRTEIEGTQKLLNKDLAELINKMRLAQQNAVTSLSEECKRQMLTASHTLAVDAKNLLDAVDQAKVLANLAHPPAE
# Mac1 fbg enh – CD11b/CD18-fibrinogen binding enhancement. P05107+P11215. K562 CD11b/CD18 adhesion to fibrinogen, ATPlite luminescence. activation, % at 10 µM. 93,000 compounds, 0.07% hits;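 active = 10 µM primary screen giving 50% or more activity, confirmed by 40% or more on retest at that dose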; note: strong numbers were not always called active; reference of the scale not given here
# MT1-MMP txn act – MT1-MMP promoter transcription activation. AID 750. activation factor at 10 µM. HT1080 MT1-MMP promoter luciferase reporter, luminescence, overnight; hits give high values. 86,000 compounds, 0.16% hits;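 active = activation factor of at least 2 for MT1-MMP transcription at 10 µM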
# * = called active by the depositor; nt = no result given. Some of the compounds tested; the hit share may differ from the screen's.
SMILES,Mac1 fbg inh,PLAP act,Pyk2 oligo antag,Mac1 fbg enh,MT1-MMP txn act
COCCN1CSC(=S)N(Cc2ccco2)C1,35,1,0.81,0,1
CCCCCCCC(=O)NNC(=O)CCC(=O)O,nt,0.8,2.5,nt,1
C=CCn1ncc(OC)c(Cl)c1=O,nt,0.9,-0.12,nt,nt
COc1cc(-c2nnc(-c3ccc(N4CCOCC4)cc3)o2)cc(OC)c1OC,nt,1.2,-1.3,nt,1
C/C(=N\Nc1nc(N)cc(Cl)n1)c1cccc([N+](=O)[O-])c1,-12,1.1,-0.82,1,nt
CCN1CCN(CCC(=O)Nc2cccc(OC)c2)CC1,nt,1.1,-0.36,nt,1.1
COc1ccc2c(c1)-c1nc(NC(=O)c3cccs3)sc1CC2,-17,0.9,-1.4,-2,1.7
Cc1ccc(C)c(Nc2c([N+](=O)[O-])cc(C(=O)N3CC(=O)Nc4ccccc43)cc2[N+](=O)[O-])c1,-6,1.2,-3*,5,nt
N#CNC1=NCN(CCc2ccccc2)CN1,nt,1,-0.05,nt,1
CCCc1cc(=O)oc2cc(OCC(=O)N3CCc4ccccc43)ccc12,nt,1,0.17,nt,1.1
Cc1ccc(-c2cnn(-c3cccc(C(F)(F)F)c3)c2N)cc1,-6,1,-1.2,2,nt
CCN1CCN(C(c2cccs2)C(C)NC(=O)c2cccnc2)CC1 (stereo not given),nt,1,0.04,nt,1.2
COc1ccc(Cn2nnnc2C(c2ccccc2Cl)N2CCC(C(N)=O)CC2)cc1 (stereo not given),nt,1.4,-1.3,nt,1.2
COC(=O)CC1C(=O)NCCN1C(=O)Nc1ccc(Cl)cc1 (stereo not given),nt,1,-0.38,nt,1.1
COc1ccc(C(=O)/C=C/Nc2ccc(NC(C)=O)cc2)cc1OC,nt,0.9,0.35,nt,nt
CCOC(=O)c1ccc(N=C2S/C(=C\c3cc(C)n(-c4cccnc4)c3C)C(=O)N2C)cc1,-1,1.4,-0.97,-4,nt
CC(Cc1ccccc1)N/C=C1\CC(=O)NC1=O (stereo not given),nt,1,0.42,nt,1.2
Cc1ccc(NS(=O)(=O)c2ccccc2Cl)c2c1CC(C)(C)O2,6,1,-1.6,7,1.1
Cc1nc2c(C)cccn2c1/C(O)=C1\C(=O)C(=O)N(CCN(C)C)C1c1ccncc1 (stereo not given),nt,1.1,-0.16,nt,1.1
O=C(NCc1cccc(C(F)(F)F)c1)c1cc(Cl)cc(Cl)c1,nt,0.9,-0.5,nt,nt
CCOc1cc(C)c(S(=O)(=O)Nc2ccc3cn[nH]c3c2)cc1C,nt,1.4,-1.7,nt,nt
CN(C)CCNC(=S)Nc1cccc(Cl)c1,10,1.1,0.25,2,nt
O=C(NC1CCCCC1)N1CCCC(c2nc(-c3cccs3)no2)C1 (stereo not given),7,1.1,0.44,6,1.2
O=C1Nc2ccc(F)cc2C12Nc1ccccc1-c1nnc(SCc3ccccc3Cl)nc1O2 (stereo not given),nt,1,-0.35,nt,nt
COc1ccc(-c2nc3c([nH]2)c(=O)n(C)c(=O)n3C)c(OC)c1,nt,1.1,0.7,nt,nt
# (more compounds)
SMILES,Mac1 fbg inh,PLAP act,Pyk2 oligo antag,Mac1 fbg enh,MT1-MMP txn act
CCn1c(SCc2c(Cl)cccc2Cl)nnc1-c1nn(-c2ccccc2)ccc1=O,nt,1.2,-0.94,nt,nt
COC(=O)COc1cccc(NC(=O)c2ccc(C)cc2)c1,9,0.9,-0.15,2,0.9
Oc1ccccc1/C=N/n1c2ccccc2c2ccccc21,nt,0.8,0.46,nt,nt
CCCCn1nc2cc(C(=O)NC[C@@H]3CCCO3)ccc2c1OCC,nt,1,nt,nt,nt
CCC(C)[C@H](NC(=O)OC(C)(C)C)c1nnc(SCc2c(C)[nH]c(=O)[nH]c2=O)o1 (stereo not given in full),nt,1,0.05,nt,1.1
Cc1ccccc1CS(=O)(=O)Cc1ccc(C(=O)NCCCN2CCOCC2)o1,-14,0.8,nt,2,1.2
Cc1ccc2c(c1)NC(=O)c1cccnc1N2,nt,0.9,-0.96,nt,nt
Cc1ccccc1-c1nc(CS(=O)CC(=O)NCCCN(C)c2ccccc2)c(C)o1 (stereo not given),23,1.4,0.86,-2,1.1
Cc1ccc(-c2ccc(=O)n(CC(=O)N3CCN(c4cccc(C)c4)C(C)C3)n2)cc1 (stereo not given),nt,1.5,0.18,nt,1.1
CCc1cccc2c(C=C(C#N)C#N)cn(CC(=O)N3CCCCCC3)c12,nt,0.9,-0.8,nt,nt
Cc1cccc(C)c1NC(=O)CSc1nnc(-c2ccccc2)n1Cc1ccc2c(c1)OCO2,nt,1.4,-1.3,nt,1.2
COc1ccc(OC)c(NC(=O)CSc2nc3ccccc3cc2Cc2ccccc2)c1,nt,1.1,-0.63,nt,nt
Cc1c(NCc2cc(Cl)ccc2O)c(=O)n(-c2ccccc2)n1C,nt,1.2,-0.53,nt,1.2
Cc1cc(C(F)F)n2ncc(C(=O)O)c2n1,nt,0.9,1.1,nt,1.2
CC(C)NC(=O)C(C)n1cccc1C(=O)c1ccccc1 (stereo not given),nt,1.1,0.05,nt,1.1
CC(=O)NNc1nc2ccccc2s1,nt,2.1*,1.5,nt,nt
CCOc1ccccc1C(=O)N1CCOCC1,0,0.8,0.77,-2,1
COc1cccc(CNCCc2c[nH]c3ccccc23)c1OCc1ccccc1F,34,1.4,0.05,-1,nt
C=CCOc1c2ccc(C(=O)NCc3ccccc3OC)cc2nn1C,nt,1.3,nt,nt,nt
Cc1nnsc1NC(=O)OCc1ccc(C(F)(F)F)cc1,nt,0.9,-0.23,nt,nt
Cc1ccc(-c2cc(N)n(-c3ccccc3)n2)cc1,nt,1,-0.06,nt,1.5
O=C(COC(=O)C1CCN(S(=O)(=O)c2cc([N+](=O)[O-])ccc2Cl)CC1)Nc1ncc(Cl)cc1Cl,nt,1.3,0.73,nt,1.2
CC(=O)c1c(C)[nH]c(C(=O)COc2cc(C)cc(C)c2)c1C,nt,0.8,0.33,nt,1.1
COC(=O)c1cc(OC)ccc1-c1ccc(OC)cc1,nt,1.1,0.01,nt,1.1
CCC(=O)NCc1c(Cl)cccc1-n1cccc1,5,1,1.3,1,nt

# Some of the entries so far, as tab-separated lines.
SMILES	Mac1 fbg inh	PLAP act	Pyk2 oligo antag	Mac1 fbg enh	MT1-MMP txn act
CCC(C)[C@H](NC(=O)OC(C)(C)C)c1nnc(SCc2c(C)[nH]c(=O)[nH]c2=O)o1 (stereo not given in full)	nt	1	0.05	nt	1.1
Cc1c(NCc2cc(Cl)ccc2O)c(=O)n(-c2ccccc2)n1C	nt	1.2	-0.53	nt	1.2
COC(=O)COc1cccc(NC(=O)c2ccc(C)cc2)c1	9	0.9	-0.15	2	0.9
Cc1nnsc1NC(=O)OCc1ccc(C(F)(F)F)cc1	nt	0.9	-0.23	nt	nt
COc1cccc(CNCCc2c[nH]c3ccccc23)c1OCc1ccccc1F	34	1.4	0.05	-1	nt
Cc1ccc(-c2cc(N)n(-c3ccccc3)n2)cc1	nt	1	-0.06	nt	1.5

# Continuation:
SMILES,Mac1 fbg inh,PLAP act,Pyk2 oligo antag,Mac1 fbg enh,MT1-MMP txn act
CC(=O)c1c(O)cc(=O)n(-c2ccccc2)c1-c1cccc2ccccc12,nt,1.1,-0.07,nt,nt
O=C(CCCNC(=O)/C(=C\c1ccccc1F)NC(=O)c1ccccc1)OCc1ccccc1,nt,0.8,0.14,nt,nt
O=C(CP(=O)(c1ccccc1)c1ccccc1)Nn1cnnc1,nt,1,-0.09,nt,nt
Cc1ccc(C(=O)Nc2cc3c(cc2Cl)OCCCO3)cc1,nt,0.9,-0.13,nt,nt
Cc1cccnc1NC1(C(F)(F)F)N=C(c2ccccc2)NC1=O (stereo not given),nt,1,-0.62,nt,nt
O=C1c2ccccc2C(=O)c2c1ccc(C(=O)N1CCCCC1)c2NCCO,nt,0.8,-1.6,nt,1.2
O=C(NC(Cc1c[nH]c2ccccc12)c1nnc2n1CCCCC2)c1ccccc1Cl (stereo not given),18,1.2,0.06,2,1.2
O=C(Nc1ccsc1C(=O)NC1CC1)c1ccccc1,-7,0.9,-1.1,-4,nt
CC(=O)NS(=O)(=O)c1ccc(NC(=S)NC(=O)c2ccco2)cc1,nt,0.9,-0.3,nt,nt
CC(C)N(CCCNC(=O)C1CCN(S(=O)(=O)N2CCOCC2)CC1)Cc1ccccc1,-3,1.5,-0.5,0,1
NS(=O)(=O)c1ccc(CNC(=O)/C=C/c2ccccc2)cc1,nt,1,1.4,nt,nt
CCCN1C(=O)/C(=C/c2ccc(C)o2)SC1=Nc1ccc(OC)cc1,17,1.1,-0.62,5,nt
CCCc1cc(C(N)=O)c(NC(C)=O)s1,-12,1.3,-0.44,-2,1.1
CC(=O)Nc1cc(C(=O)N2CCCC2)ccc1S(=O)(=O)c1ccc(C)cc1,nt,1,0.5,nt,1.2
COc1ccc(C(C(=O)NC2CCCCC2)N2CCC3(CC2)OCCO3)cc1 (stereo not given),nt,1.3,-0.93,nt,nt
CC(CC(=O)Nc1nc2ccccc2[nH]1)c1ccccc1 (stereo not given),-7,1.2,-0.94,-1,1.5
CCOC(=O)c1cnc2cc3c(cn2c1=O)CCCC3,nt,0.8,0.55,nt,1.3
Cc1ccc(S(=O)(=O)CCc2nnc(N)s2)cc1,nt,0.9,0.51,nt,1.1
Cn1c(NCCN2CCOCC2)nc2c1c(=O)n(Cc1cccc(Cl)c1)c(=O)n2C,-21,1.5,-0.02,0,1.2
COC(=O)COc1ccc(C2NC(=O)NC(c3ccccc3)=C2C(C)=O)cc1OC (stereo not given),-1,0.9,-0.76,0,1.2
CC1=C(C(N)=O)C(c2cccs2)n2nc(-c3cccc(Cl)c3)nc2N1 (stereo not given),nt,1,-0.4,nt,1.1
Cc1cc(N2C(=O)C(O)=C(C(=O)c3cccs3)C2c2cccc(O)c2)no1 (stereo not given),-9,1.1,0.55,11,1
O=C(NCc1cccnc1)/C(=C\c1ccc(-c2cccc(Cl)c2)o1)S(=O)(=O)c1ccccc1,-2,nt,-1.4,1,nt
Cc1ccccc1NC(=O)C1CC(=O)N(c2ccc3c4c(cccc24)CC3)C1 (stereo not given),nt,1.5,2.5,nt,nt
CC1CCCN(CC(O)COCC2COc3ccccc3O2)C1 (stereo not given),nt,0.9,0.71,nt,nt

# The closing 2 records of the section above come first, to join the parts:
SMILES,Mac1 fbg inh,PLAP act,Pyk2 oligo antag,Mac1 fbg enh,MT1-MMP txn act
Cc1ccccc1NC(=O)C1CC(=O)N(c2ccc3c4c(cccc24)CC3)C1 (stereo not given),nt,1.5,2.5,nt,nt
CC1CCCN(CC(O)COCC2COc3ccccc3O2)C1 (stereo not given),nt,0.9,0.71,nt,nt
CONC(=O)c1cc(OCC(F)(F)F)ccc1OCC(F)(F)F,nt,1,0.4,nt,nt
Nc1n[nH]c(-c2ccc(Br)cc2)c1Cl,nt,1.2,-0.35,nt,1.4
CC(C)c1ccc(NC(=O)COC(=O)C2=COCCO2)cc1,16,1.1,0.16,-7,1.2
O=c1cc(N2CCc3ccccc3C2)[nH]c(=O)n1C1CCCCC1,nt,1,-0.78,nt,1
Cc1ccccc1OCC(O)Cn1c2ccccc2c2ccccc21 (stereo not given),0,0.9,-0.28,-7,nt
Cc1ccc(NC(=O)c2ccc(CSc3nnc(C)s3)cc2)cc1,nt,0.8,2,nt,nt
COc1cc(NC(=O)c2c(F)cccc2F)nc(OC)n1,8,1,1.5,2,nt
CCOc1ccc(-c2nnc3ccc(SC)nn23)cc1,nt,1,-0.42,nt,1.1
Cc1ccc(Cn2nc(C)c(NC(=O)c3cc(-c4ccco4)on3)c2C)cc1,nt,0.9,-0.42,nt,1.1
O=C(NCc1ccccn1)C1CC(c2ccc(Cl)c(Cl)c2)=NO1 (stereo not given),13,1,1.9,4,1.2
CCn1ccc(C(=O)NC2C(=O)N3C(C(=O)O)=C(C)CSC23)n1 (stereo not given),nt,0.8,1.1,nt,nt
CCCCCCC(=O)Nc1ccc(C(=O)N/N=C/c2cccnc2)cc1,nt,0.9,-1.3,nt,nt
Cc1cc(=O)oc(C)c1C(=O)OCC(=O)c1ccc(Cl)cc1,0,1,0.17,1,1.3
CCCN1CCC(=NNC(=O)c2ccc(Br)o2)CC1,nt,1.1,0.19,nt,nt
CCOC(=O)c1cc2c(=O)n3cccc(C)c3nc2n(CCCOC)c1=NC(=O)c1cccnc1,nt,1.3,-0.22,nt,1
N#CCO/N=C(\c1ccccc1)c1ccncc1,nt,1,-0.92,nt,nt
COC(=O)N1N=C(c2ccccc2)CC1(O)C(F)(F)F (stereo not given),nt,1.1,-0.18,nt,nt
CCOC(=O)Cc1nnc(NC(=O)CSc2ccc(C)cc2)s1,nt,1,1.8,nt,nt
Nc1c(N=Nc2cccc(Cl)c2)c(=O)[nH]n1-c1ccccc1,nt,0.9,-0.18,nt,nt
CSc1nc(-c2ccc(C)cc2)nc(C(Cl)Cl)n1,nt,0.8,0.95,nt,nt
CCOC(=O)/C(C#N)=C/C1=C(N2CCCC2)CC(C)(CC)OC1 (stereo not given),-4,1,0.52,-2,1.2
COc1ccc2cc3cc(C(=O)NCCc4ccc(OC)c(OC)c4)oc3nc2c1,nt,1.3,-3,nt,1.2
COc1ccc(N2CCC(CNC(=O)Nc3ccc(OC)cc3OC)C2)cc1 (stereo not given),nt,1,-0.89,nt,1

# Source: PubChem
